# Source: PubChem BioAssay (ICCB-Longwood Screening Facility, Harvard Medical School)
# Sa growth 42C – S. aureus growth inhibition at 42 and 30 °C, primary screen, LtaS inhibitor project, RN4220, two temperatures; OD600, 20 h, 42 °C; hits give low values; relative growth, % (test concentration not listed); actives 0.53% (n = 170,000);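 active = growth at 42 °C up to 50% and 20 or more points under that at 30 °C, or under 10% at both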;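 also: 300 nL library stock went into each well; scaled to the means of positive and negative controls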
# HCMV UL50-53 inh – inhibitors of HCMV UL50-UL53 interaction, biochemical, HTRF; HCMV UL50-UL53 nuclear egress complex (human cytomegalovirus); actives 0.15% (n = 190,000); normalized percent inhibition; inhibition, % (no concentration beside the values);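 active = both replicates at 50% or more, plus weaker picks with an unusually low signal ratio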;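 also: stock transfer was 100 nL into about 20 µL; 0% = negative control wells and 100% = wells with untagged competitor protein; inactives centre near -12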
# GIV Gai3 FP – inhibitors of GIV peptide binding to Galpha-i3, primary screen, biochemical, fluorescence polarization, FITC-GIV GBA peptide, rat Galphai3; Guanine nucleotide-binding protein G(i) subunit alpha-3 (Rattus norvegicus), P08753; 90 min; hits give low values; scaled: aluminum fluoride 0%, vehicle 100%; percent of control (FP), % (concentration not given with the values); actives 0.42% (n = 210,000);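 active = replicate mean at 85% of control or lower, very high polarization wells dropped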;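 also: wells of about 15 µL received 100 nL stock; the first replicate is given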
# Target sequence (P08753 whole entry, looked up): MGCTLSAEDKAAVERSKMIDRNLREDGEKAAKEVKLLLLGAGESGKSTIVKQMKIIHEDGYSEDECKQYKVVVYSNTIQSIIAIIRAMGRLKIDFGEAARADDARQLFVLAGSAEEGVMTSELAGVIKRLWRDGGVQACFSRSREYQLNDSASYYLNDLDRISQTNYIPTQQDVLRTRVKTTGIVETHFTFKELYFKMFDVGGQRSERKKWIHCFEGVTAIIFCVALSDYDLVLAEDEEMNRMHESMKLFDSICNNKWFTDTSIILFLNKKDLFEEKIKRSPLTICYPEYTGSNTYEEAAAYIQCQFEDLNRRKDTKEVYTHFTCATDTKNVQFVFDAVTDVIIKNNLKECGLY
# Sa growth 42C second temp – further read-out of Sa growth 42C, marked with its call; relative growth, %; measured here: growth at 30 °C;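 optical density after 20 h as mean of two plates; 100% = untreated growth and lower means inhibition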
# * hit, by the source's call; · = no result given; & = joins results of further samples.
SMILES,Sa growth 42C,Sa growth 42C second temp,HCMV UL50-53 inh,GIV Gai3 FP
CCN(C(=O)Cc1c(C(=O)O)[nH]c2ccc(Cl)cc12)c1ccc(C)c(C)c1,79.9,74.7,·,100.0
COc1ccc(CCC(=O)NCCc2nc(-c3ccc(C)cc3)n[nH]2)cc1,·,·,-11.0,97.4
CSc1nc2ccc(NC(=O)CCNC(C)=O)cc2s1,91.8,88.1,-17.8,·
CCCCOc1ccc(C(=O)Nc2ccc3nc(C)sc3c2Cl)cc1,·,·,-2.6,105.1
CC(=O)N(/C=C1\SC(=S)N(Cc2ccccc2)C1=O)c1ccccc1,100.9,95.4,·,108.7
CCC(C)c1ccccc1NC(=S)Nc1cccnc1 (configuration not stated),90.1,87.0,-4.2,·
Cc1ccc(-c2c(NCc3ccc4c(c3)OCO4)c(=O)c2=O)cc1,·,·,-12.9,104.4
CCOc1cc2c(cc1OCC)C1C(C(=O)NCCCN3CCN(C)CC3)c3ccccc3C(=O)N1CC2 (configuration not stated),98.3,103.9,1.1,108.8
Nc1[nH]n(-c2ccccc2)c(=O)c1C1=NCCCCC1,105.6,89.6,-5.3,·
Cn1c2ccccc2c2nnc(SCCCC(=O)c3ccc(F)cc3)nc21,95.5,70.6,·,104.0
Cc1ccc(NC(=O)Nc2c(-n3cnnc3)nn(C)c2C)cc1,·,·,-17.2,99.1
CC(OC(=O)c1nn(C)c(=O)c2ccccc12)C(=O)N1CCCC1 (configuration not stated),95.3,88.1,-30.7,·
c1ccc(-c2nnc(CN3CCN(c4ccccc4)CC3)o2)cc1,101.0,86.3,-2.9,98.6
CCOC(=O)C1=C(C)N=c2s/c(=C\c3ccc(N4CCCCC4)o3)c(=O)n2C1c1ccc(OC)c(OC)c1 (configuration not stated),·,·,-23.2,136.6
COc1cc(OC)cc(C(=O)NCCc2csc3nc(-c4ccccc4F)nn23)c1,90.8,82.8,·,105.8
Cc1cc(C(=O)N2CCN(C(c3ccccc3)c3ccccc3)CC2)on1,82.9,91.8,·,105.0
COC(=O)c1c(C)nc2n(CCN3CCCCC3)c3ccccc3n12,103.7,68.0,-1.2,104.4
CCCCc1ccc(NC(=O)CN2C(=O)CCSc3ccccc32)cc1,·,·,-31.1,98.6
O=C(Cn1c(=O)oc2ccccc21)NCc1cccc(Cl)c1,107.3,92.1,-30.2,105.4
O=C1C(=O)N(C2CCN(C(=O)c3ccc(F)cc3)CC2)CCN1Cc1cccc(F)c1,·,·,-19.0,101.9
COc1cccc(NC(=O)C2CCN(c3nnc(-n4c(C)ccc4C)s3)CC2)c1,89.2,75.8,-35.5,104.9
CC(=O)Nc1ccc(N/C=C/C(=O)C(C)(C)C)cc1,101.8,99.3,-4.2,103.9
Cc1nn(-c2ccccc2)c2sc(C(=O)Nc3ccccc3Br)cc12,90.2,88.4,-18.3,102.9
Cc1nc(O)c(C(c2ccccc2F)C(C#N)C#N)[nH]1 (configuration not stated),121.1,90.1,·,98.0
O=C1CCN(C(=O)CCCSc2nc3ccccc3[nH]2)CC1,100.8,91.7,-17.4,·

# Record cards (already shown). Screens in order: Sa growth 42C | Sa growth 42C second temp | HCMV UL50-53 inh | GIV Gai3 FP
# Record of COc1cc(OC)cc(C(=O)NCCc2csc3nc(-c4ccccc4F)nn23)c1 → 90.8 | 82.8 | · | 105.8
# Record of CCC(C)c1ccccc1NC(=S)Nc1cccnc1 (configuration not stated) → 90.1 | 87.0 | -4.2 | ·

# Next part.
SMILES,Sa growth 42C,Sa growth 42C second temp,HCMV UL50-53 inh,GIV Gai3 FP
Cc1ccc(NC(=O)c2onc(C)c2Cl)cc1,·,·,-35.3,98.8
CCOc1ccc(-c2nonc2NC(=O)COc2ccccc2)cc1OCC,·,·,-18.5,98.7
Cc1nc2ccccc2c(=O)n1NCc1ccccc1Br,84.8,102.3,·,97.5
Cc1nc2nncn2c(NCc2ccc(Cl)cc2)c1C,112.3,91.0,-21.5,103.1
CCc1cc2cc(C(=O)O)sc2s1,95.5,96.5,-20.2,·
Cc1cn2c(nc3c2c(=O)n(C)c(=O)n3C)o1,94.2,85.6,-26.4,102.6
O=C(NCc1ccccc1)c1ccc2c(c1)sc1nc(-c3ccc(F)cc3)cn12,111.7,106.1,·,104.3
NC1CCOc2ccccc21 (configuration not stated),76.0,90.4,-13.0,·
CCS(=O)(=O)N1Cc2ccccc2CC1C(=O)N=c1sc2ccccc2n1C (configuration not stated),127.8,32.6,-9.2,·
c1ccc(N=C(CSc2nncs2)Nc2ccccc2)cc1,85.0,77.3,-15.4,·
C1=C(N2CCOCC2)/C(=C/c2nc3ccccc3[nH]2)CC1,89.8,60.7,-41.2,·
COc1ccc(-c2c(C)nn3c(N4CCN(c5cc(Cl)ccc5C)CC4)cc(C)nc23)cc1OC,77.9,86.5,-34.7,104.0
CCC1CCCCN1CCCNc1cnnc2c(Cl)cccc12 (configuration not stated),113.4,101.0,-44.7,102.6
CC(C)Oc1ccccc1C1C=C(C(=O)O)Nc2ncnn21 (configuration not stated),90.7,92.4,1.7,106.0
Cc1ccc(C(=O)Nc2ccc(-c3nc4ccccc4s3)c(O)c2)c(C)c1,109.7,89.8,·,104.5
COc1ccccc1CCNC(=O)Cc1c(C)c2c(cc(C)c3c(C)c(C)oc32)oc1=O,102.9,90.6,-34.1,102.4
O=C(c1nc2ncccn2n1)N1CCc2ccccc2C1,122.9,85.1,·,104.6
Cc1ccc(CN2C(=O)CN(C3CCCC3)C(=O)C2c2ccc(F)cc2)cc1 (configuration not stated),99.7,87.4,3.1,103.2
O=C(Nc1nc2ccc(Cl)cc2s1)c1cccc(-c2noc(C3CCC3)n2)c1,·,·,-13.7,100.6
CN(C)S(=O)(=O)c1ccc(C(=O)N2CCN(C(=O)c3ccccc3)CC2)cc1,83.2,100.1,-27.0,·
CC1CCCCN1c1nnc(NC(=O)NC2CCCC2)s1 (configuration not stated),90.1,75.9,-23.3,102.8
Cc1cccnc1NC(=O)C(F)(F)C(F)(F)C(F)(F)F,88.6,83.5,31.9,102.1
CCOC(=O)CSc1nn(C)c2nc3c(c(=O)n12)C(C)(C)Cc1ccccc1-3,·,·,-29.5,103.8
COCc1c(CSSCc2cnc(C)c(O)c2COC)cnc(C)c1O,92.3,80.0,-22.9,99.6
O=C(NC(=S)Nc1ccc2[nH]c(=O)[nH]c2c1)c1ccccc1Br,95.9,85.2,-18.6,96.7

# An excerpt from above in order of the Sa growth 42C second temp value, descending.
compound | Sa growth 42C second temp
Cc1nc2ccccc2c(=O)n1NCc1ccccc1Br | 102.3
Cc1ccc(C(=O)Nc2ccc(-c3nc4ccccc4s3)c(O)c2)c(C)c1 | 89.8
O=C(NC(=S)Nc1ccc2[nH]c(=O)[nH]c2c1)c1ccccc1Br | 85.2
Cc1cccnc1NC(=O)C(F)(F)C(F)(F)C(F)(F)F | 83.5
C1=C(N2CCOCC2)/C(=C/c2nc3ccccc3[nH]2)CC1 | 60.7

# (listing goes on)
SMILES,Sa growth 42C,Sa growth 42C second temp,HCMV UL50-53 inh,GIV Gai3 FP
CCCNC(=O)C1=C(C)C(=O)OC12CCCCC2,91.9,86.1,·,100.4
CCOC(=O)c1c(NC(=O)/C(C#N)=C/c2ccc(OC)cc2)sc2c1CCC2,88.9,80.6,-55.9,103.6
O=C(O)CCCC(=O)NC1CCCc2ccccc21 (configuration not stated),98.3,95.2,0.2,107.6
CN1CCc2nc(NC(=O)Cc3coc4cc5c(cc34)CCC5)sc2C1,106.6,97.7,7.7,·
COc1cc2ncnc(N3CCCC3)c2cc1OC,96.6,89.1,-4.4,111.7
CC(C)C(=O)N1CCN(c2ccc(Nc3c4c(nc5nc(-c6ccccc6)nn35)CCCC4)cc2)CC1,·,·,9.0,94.4
CC1CC(C)CN(c2ccc(NS(=O)(=O)c3ccccc3)cc2C(=O)O)C1 (configuration not stated),95.1,90.3,-18.8,100.6
CCCN(CCC)c1ccc(C2N=C(N)Nc3nc4ccccc4n32)cc1 (configuration not stated),107.2,96.3,-4.2,107.0
O=C(CSc1nnc(CNC(=O)c2ccco2)o1)NCc1ccccc1,90.4,93.9,·,101.4
COc1cccc(NC(=O)C(C)Sc2nc(-c3ccccc3)cc(C(F)(F)F)n2)c1 (configuration not stated),63.6,85.9,·,109.7
NC(=O)c1ccccc1OCC(=O)N1CCC(Cc2ccccc2)CC1,95.8,93.4,13.2,·
COc1ccccc1NCC(C)(C)CC=C(C)C,112.5,105.5,-11.3,102.6
O=c1c2c3c(sc2n(Cc2cc(=O)n4ccccc4n2)c(=O)n1-c1ccccc1)CCC3,100.4,87.6,-8.8,97.8
CC1CCN(CCCC(=O)c2ccc(F)cc2)CC1,90.0,85.1,-6.3&-71.1&-53.8,·
Cc1ccc(-n2nc3c(c2NC(=O)/C=C\c2ccccc2)CSC3)cc1,119.2,75.9,·,99.9
Nc1c(C(=O)Nc2ccc(Cl)c(Cl)c2)sc2nc3c(cc12)CCC3,·,·,8.4,101.8
Cc1ccc(Cn2nc(C)c(/C=C/C(=O)OCc3nc4ccccc4c(=O)n3CC#N)c2C)cc1,94.0,91.1,-13.4,·
C=CCn1c(SCC(=O)Nc2ccccc2F)nc2sc3c(c2c1=O)CCC3,·,·,-16.6&-14.2,103.6&97.5
CN(C)c1ccc(/C=C2/CCC/C(=C\c3ccc(N(C)C)cc3)C2=O)cc1,105.5,93.7,-15.4,188.0
NC(=O)c1cccnc1-c1nc2ccccc2s1,96.1,100.1,-4.6,100.3
COc1ccc(OC)c(C2CC(=O)Nc3c2c(=O)[nH]c2nc4ccccc4n32)c1 (configuration not stated),93.5,98.5,-3.7,110.3
O=C(CSc1cn[nH]c(=O)n1)NC1CCCCC1,·,·,-20.5,99.0
COc1cccc(Nc2nc3c(S(=O)(=O)c4ccccc4)nnn3c3ccsc23)c1,101.4,87.8,-54.6,97.7
CC(=O)Nc1ccc2c(c1)nc(CN1CCN(C)CC1)n2C,·,·,-16.4,104.5
Cc1cc(C)c2c(=O)cc(CSc3nnc(-c4ccccc4)n3C)[nH]c2c1,86.2,79.4,·,98.9

# Filtered by structure, the entries above with a furan ring, fused or not.
SMILES,Sa growth 42C,Sa growth 42C second temp,HCMV UL50-53 inh,GIV Gai3 FP
CCOC(=O)C1=C(C)N=c2s/c(=C\c3ccc(N4CCCCC4)o3)c(=O)n2C1c1ccc(OC)c(OC)c1 (configuration not stated),·,·,-23.2,136.6
COc1ccccc1CCNC(=O)Cc1c(C)c2c(cc(C)c3c(C)c(C)oc32)oc1=O,102.9,90.6,-34.1,102.4
CN1CCc2nc(NC(=O)Cc3coc4cc5c(cc34)CCC5)sc2C1,106.6,97.7,7.7,·
O=C(CSc1nnc(CNC(=O)c2ccco2)o1)NCc1ccccc1,90.4,93.9,·,101.4

# Sorted by SMILES length (falling): three of the compounds above.
SMILES,Sa growth 42C,Sa growth 42C second temp,HCMV UL50-53 inh,GIV Gai3 FP
COc1ccc(OC)c(C2CC(=O)Nc3c2c(=O)[nH]c2nc4ccccc4n32)c1 (configuration not stated),93.5,98.5,-3.7,110.3
COc1cccc(Nc2nc3c(S(=O)(=O)c4ccccc4)nnn3c3ccsc23)c1,101.4,87.8,-54.6,97.7
CC(=O)Nc1ccc2c(c1)nc(CN1CCN(C)CC1)n2C,·,·,-16.4,104.5

# Additional entries follow:
SMILES,Sa growth 42C,Sa growth 42C second temp,HCMV UL50-53 inh,GIV Gai3 FP
CCOC(=O)C1=C(C)NC(C)=C(C(=O)OCC)C1C(=O)OCN1C(=O)c2ccccc2C1=O,84.0,98.2,-15.2,·
CCOC(=O)c1c(NC(=O)N2CCOc3ccccc32)sc2c1CCCC2,·,·,21.2,101.9
CC(C)c1ccc(NC(=S)NCc2ccc(C#N)cc2)cc1,79.4,53.6,-32.2,105.8
c1ccc2c(c1)c1ccccc1c1nc(N3CCOCC3)nnc21,91.4,82.8,-37.5,100.0
COc1ccc(C(=O)OCC(=O)c2ccc3[nH]c(=O)[nH]c3c2)c(OC)c1,95.9,78.5,-15.3,·
O=C(c1ccccn1)N1CCc2ccccc2C1,111.5,91.4,3.3,·
Cc1ccc(S(=O)(=O)Nc2nc3ccccc3nc2N2CCN(c3ccccc3)CC2)cc1,85.2,80.7,·,101.8
NC(=O)CCN1C(=O)c2ccccc2C1=O,110.1,98.2,·,103.3
O=C(Nn1c(-c2cccs2)nc2ccccc2c1=O)c1cc2cc(Br)ccc2oc1=O,·,·,-13.4,110.2
Cc1ccc([N+](=O)[O-])c2c1NC(c1ccc(Cl)cc1Cl)C1CC=CC21 (configuration not stated),·,·,-20.3,100.5
Cc1ccc(-n2nc(C(=O)N3CCN(c4ccc(F)cc4)CC3)c(=O)n(C)c2=O)cc1,83.1,95.0,·,97.7
Cn1c(=O)c(-c2noc(CCC(=O)N3CCc4ccccc43)n2)nn(-c2ccccc2)c1=O,·,·,-33.0,111.4
Oc1ccc(-c2nc(-c3c[nH]c4ccccc34)cs2)cc1,107.2,96.5,-2.2,·
Cc1cc(C)nc(SCCN2CCCC2)n1,84.5,88.3,-3.2,100.5
COc1c(F)c(F)c(C(=O)Nc2ccc(N3CCN(S(C)(=O)=O)CC3)cc2)c(F)c1F,108.4,101.3,-6.2,102.0
